# Screening data (PubChem)
# VDR inh = Inhibitors of the vitamin D receptor (VDR): qHTS; hit rate 0.93% among 400,000; VDR-SRC2-3 peptide fluorescence polarization, 2 h; Vitamin D3 receptor (Homo sapiens), P11473; Potency, µM, without a hit: max response, negative = inhibition, most hits filed as inhibitors; AID 504847, 2011; active = well fitted inhibition curve with a large enough effect; inconclusive = small, poorly fitted or top-dose-only effect, or another doubt; inactive = no such curve, though single readings can be large or run the other way; note: series mostly up to about 120 µM
# Target sequence (P11473 whole entry, looked up): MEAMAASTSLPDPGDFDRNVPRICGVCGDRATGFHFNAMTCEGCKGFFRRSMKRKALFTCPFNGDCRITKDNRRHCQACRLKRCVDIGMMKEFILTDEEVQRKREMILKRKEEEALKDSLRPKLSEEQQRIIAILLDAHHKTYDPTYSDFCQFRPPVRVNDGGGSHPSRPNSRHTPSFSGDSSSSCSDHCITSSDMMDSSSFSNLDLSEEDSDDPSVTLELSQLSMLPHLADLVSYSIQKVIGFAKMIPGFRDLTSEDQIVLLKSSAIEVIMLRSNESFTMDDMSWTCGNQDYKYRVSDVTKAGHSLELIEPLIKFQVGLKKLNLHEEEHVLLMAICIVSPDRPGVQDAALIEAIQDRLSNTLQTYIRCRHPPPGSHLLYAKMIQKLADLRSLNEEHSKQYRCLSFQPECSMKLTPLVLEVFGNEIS
#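 Measured by FP: displacement of SRC2-3 coactivator peptide from VDR by library compounds, following a two-hour ambient incubation.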
# Numbers without * were called inactive; ? = inconclusive; & = joins results of further samples. % is set by controls: 0 for no effect and ±100 for the full control effect; potency is the fitted concentration of half-maximal effect. An excerpt; rates above refer to the full screens.
mol	VDR inh
COc1ccc(N2CCC(CNC(=O)Nc3ccc(C)c(C)c3)C2)cc1 (centres undefined)	-12%
CCOC(=O)c1[nH]c(C)c(C(=O)OCC(=O)NC(C)c2ccc(F)cc2)c1C (centres undefined)	-12%
COc1ccc2c3c([nH]c2c1)[C@@H]1C[C@@H]2[C@@H](C[C@H](O)[C@H](OC)[C@H]2C(=O)O)CN1CC3	7%
COc1cc(OC)c(C2C(C(=O)O)c3ccccc3C(=O)N2C)cc1OC (centres undefined)	6%
CCCCSc1nc2c(=O)[nH][nH]c(=O)c2n1Cc1ccccc1	-10%
O=C(c1ccc(Cl)cc1)N(Cc1ccc(Br)cc1)N1C(=O)CCC1=O	-1%
Cc1cc(C(=O)COc2cccnc2[N+](=O)[O-])c(C)n1-c1ccccc1	6%
CCN(CC(=O)Nc1ccc2c(c1)OCCO2)C(=O)c1cccc(OCC(C)C)c1	-4%
O=C(/C=C/c1ccco1)Nc1ccc(-c2nc3ccccc3[nH]2)cc1	4%
Cc1ccc(SCC(=O)N2CCC(C(N)=O)CC2)cc1	-12%
Cc1ccccc1N(C(=O)CCC(=O)Nc1ccccn1)C(C(=O)NC(C)C)c1ccc(O)cc1 (centres undefined)	-7%
c1ccc(-n2nnnc2SCc2cccc3nsnc23)cc1	-9%

# Arranged by molecular weight (falling): 3 of the compounds above.
mol	VDR inh
CCN(CC(=O)Nc1ccc2c(c1)OCCO2)C(=O)c1cccc(OCC(C)C)c1	-4%
CCOC(=O)c1[nH]c(C)c(C(=O)OCC(=O)NC(C)c2ccc(F)cc2)c1C (centres undefined)	-12%
Cc1cc(C(=O)COc2cccnc2[N+](=O)[O-])c(C)n1-c1ccccc1	6%

# Further compounds
mol	VDR inh
COc1ccc(OC)c(Nc2nc(-c3ccccc3O)nc3ccccc23)c1	2%
COc1cc(NC(=O)CCNC(=O)Cn2cnc3sc4c(c3c2=O)CCCC4)cc(OC)c1OC	-12%
CCOc1ccc(-n2c(=O)[nH]cc(C(=O)N3CCCc4ccccc43)c2=O)cc1	2%
C/C(=N\Nc1ccc(C(F)(F)F)cc1[N+](=O)[O-])C(C)C	-20%
NS(=O)(=O)c1cccc(NC(=O)COC(=O)C2(c3cccc(F)c3)CCCC2)c1	-14%
CCc1nn(CC(=O)N(C)C2CCCCC2)c(=O)c2cc3cc(C)ccc3n12	-8%
COc1ccc(Cn2c(C3CC3)nc3ccc(NC(=O)C4CC4)cc3c2=O)cc1	-1%
COc1cccc(N2CCN(C3C(=O)c4ccccc4N3C(C)=O)CC2)c1 (centres undefined)	18%
NC1=NC(=O)C2(COC(c3cccnc3)OC2)S1 (centres undefined)	?
CCc1ccc(N2CC(C(=O)N3CCCC3)CC2=O)cc1 (centres undefined)	-3%
Cc1cccc(CN2CCOCCS2(=O)=O)c1	-10%
CN1CCN(c2nc(NCCOC34CC5CC(CC(C5)C3)C4)nc(OCC(F)(F)F)n2)CC1	3%

# Remaining list, next part
mol	VDR inh
O=C(C(=O)c1ccc(O)c(O)c1)c1ccc(O)c(O)c1	4%
Cc1ccc(NC(=O)CN(C)C(=O)C(Sc2ccccc2)c2ccccc2)cc1 (centres undefined)	6%
Cc1ccc([C@@H]2CC=C(C(=O)O)CN2S(=O)(=O)c2ccccc2C)cc1	-24%
CC1CCCC(C)N1C(=O)COC(=O)c1cccnc1Cl (centres undefined)	-7%
CC1CN(C(=O)CCC(=O)NCc2ccc(Cl)cc2)c2ccccc2S1 (centres undefined)	7%
Cc1ccccc1NC(=O)c1ccccc1NS(=O)(=O)c1cccc2cccnc12	9%
CCn1c(SCC(=O)N2CCC(C(N)=O)(N3CCCCC3)CC2)nnc1-c1ccccc1	-22%
COc1ccc(C(=O)C2CCCN(Cc3ccc4nonc4c3)C2)cc1F (centres undefined)	11%
O=C(NCCc1ccccc1)C1CCC(CNc2c(N3CCCCC3)c(=O)c2=O)CC1 (centres undefined)	13%
O=C1CC(Nc2ccc(N3CCOCC3)cc2)C(=O)N1C1CCCCC1 (centres undefined)	-7%
COc1ccc(CC(=O)NCc2nnc(SCc3ccc([N+](=O)[O-])cc3)n2C)cc1	-6%
CCn1c(SCC(=O)NC2CCCC2)nnc1-c1cccnc1	16%

# Further compounds:
mol	VDR inh
COc1ccc(-c2cnn3c4c(c(C)nc23)CCN4C(C)C)cc1OC	1%
Cc1noc(C)c1NC(=O)N(C)C[C@H]1Oc2ccc(NS(=O)(=O)c3c(C)noc3C)cc2C(=O)N([C@H](C)CO)C[C@@H]1C	0%
Cc1ccc(NC(=O)C2OCCc3ccccc32)cc1Cl (centres undefined)	9%
Cc1ccc2oc(C(=O)N3CCN(c4cccc(C)n4)CC3)c(C)c2c1	?
Fc1ccccc1NC(=S)NCCc1ccccc1	-22%
Cc1c(NC(=S)SCc2ccccc2)c(=O)n(-c2ccccc2)n1C	1%
CCCCN(C(=O)Cc1ccc(S(=O)(=O)N2CCOCC2)s1)c1c(N)n(CCCC)c(=O)[nH]c1=O	-10%
Cc1ccc2[nH]c(-c3cccc(N)c3)cc2c1	1%
CCOCCCNS(=O)(=O)c1ccc(-n2cnnn2)c(OC)c1	0%
CCc1ccc(/C=N\n2cnnc2)cc1	-6%
Cc1c(C(=O)NCc2ccccn2)oc2ccc(Br)cc12	-12%
Cc1nc2cc(-c3ccc(F)cc3)[nH]n2c(=O)c1C	-22%

# Single entries from above:
# Reading for `CCCCN(C(=O)Cc1ccc(S(=O)(=O)N2CCOCC2)s1)c1c(N)n(CCCC)c(=O)[nH]c1=O` under VDR inh: -10%
# Reading for `Cc1ccc(NC(=O)C2OCCc3ccccc32)cc1Cl` (centres undefined) under VDR inh: 9%
# Reading for `CCc1ccc(/C=N\n2cnnc2)cc1` under VDR inh: -6%
# Reading for `Cc1nc2cc(-c3ccc(F)cc3)[nH]n2c(=O)c1C` under VDR inh: -22%

# The listing continues.
canonical_smiles	VDR inh
CCOC(=O)C1=C(C)Nc2ccccc2N/C1=N\S(=O)(=O)c1ccc(Cl)cc1	-11%
Cc1c(C(=O)NCc2cccnc2)sc2ncn(CC(=O)N3CCCCC3C)c(=O)c12 (centres undefined)	-1%
COCC1CCCCN1Cc1cn(-c2ccccc2)nc1-c1ccc2c(c1)OCO2 (centres undefined)	2%
O=C(Cn1cnc2c(nnn2Cc2ccc(Cl)cc2)c1=O)c1ccccc1	-16%
COc1ccc(OC)c(CCNC(=O)CN2C(=O)COc3ccc(S(=O)(=O)N4CCCCCC4)cc32)c1	?
Cc1ccc(C(=O)N2CCOCC2)cc1S(=O)(=O)Nc1cccc(C)c1C	13%
N#CCC(=O)Nc1ccc(C(=O)NNC(=O)CCN2CCN(c3ccccc3)CC2)cc1	-18%
COc1ccc(CC(=O)N2CCN(c3ccccc3)CC2)cc1	-15%
CCOC(=O)C(Cc1ccc(O)cc1)NC(=O)CCc1c[nH]c2ccccc12 (centres undefined)	-11%
Cc1ccc(CNC(=O)CN2C(=O)CSc3ccc(S(=O)(=O)N(C)C)cc32)cc1	5%
O=C(CSc1nc2ccccc2[nH]1)Nc1ccc(N2CCOCC2)cc1	-13%
COCCCNC(=O)c1cc(C)nn1-c1ccccc1	-6%
CC(=O)c1sc(NC(=O)c2cccc3ccccc23)nc1C	-13%
CSc1nc(Cl)cc(N2CCOCC2)n1	-25%
Cc1ccc(S(=O)(=O)NC2=NCN(C(C)C)CN2)cc1	-2%

# (further entries)
canonical_smiles	VDR inh
CCNc1ncc2nc(-c3ccc(Cl)cc3)c(=O)n(Cc3cccc(OC)c3)c2n1	-8%
O=C1COc2ccc(C(=O)COC(=O)Cc3ccc(Cl)cc3)cc2N1	10%
CCOc1ccc(NS(=O)(=O)c2cc(NC(=O)C3CC3)ccc2C)cc1Br	-4%
C(=N\n1cnnc1)/c1ccc2c(c1)OCO2	1%
Cc1ccc(SCc2cc(=O)[nH]c(/N=C(\N)Nc3ccccc3Sc3ccccc3)n2)cc1	-6%
O=C(COc1ccc(S(=O)(=O)NC2CCCCC2)cc1)Nc1ccc(C(F)(F)F)cc1	-13%
CCn1c(=O)c2c(n3c(=S)[nH]nc13)-c1ccccc1CC21CCCCC1	-16%
O=C(CSc1nnc2scc(-c3ccc(Cl)cc3)n12)Nc1cccc(C(F)(F)F)c1	-13%
Cc1cc(C)n2nc(SCC(=O)NC3CCCCC3C)nc2n1 (centres undefined)	-1%
C/C(CC1CC(C)(C)OC1=O)=N\NC(N)=S (centres undefined)	-9%
O=C(CSc1nnc(C2COc3ccccc3O2)o1)N1CCN(c2ccccc2)CC1 (centres undefined)	-10%
COc1ccc(-c2nc3n(n2)C(c2ccccc2)C(C(=O)Nc2cccnc2)=C(C)N3)cc1 (centres undefined)	10%
Cc1csc(N/N=C\c2cccnc2)n1	26%
CCCCC(=O)Nc1cccc(NC(=O)c2ccc3c(c2)OCO3)c1	5%
Clc1ccc(-c2nnc(C34CC5CC(CC(C5)C3)C4)o2)cn1	-9%

# Further entries:
canonical_smiles	VDR inh
COC(=O)c1ccc(C2NC(=O)c3c(sc(C)c3C)N2)cc1 (centres undefined)	-10%
COc1ccc(/C=C\C(=O)NCC(=O)N/N=C/c2cccc(OC)c2O)cc1	-3%
O=C(Cc1cccs1)NC1(C(=O)NC2CCCC2)CCCCC1	3%
CCOc1cc(/C=C2\C(=O)N(CCc3ccc(OC)c(OC)c3)C(C)=C2C(=O)OC)ccc1O	-20%
COc1ccc(OCCCC(=O)OCC(=O)Nc2sccc2C(N)=O)cc1	-25%
COc1ccc(-c2sc3ccc(OC)cc3c2C#CCCO)cc1	0%
COc1cccc(NC(=O)NNS(=O)(=O)c2ccc(OC)cc2OC)c1	7%
CCN(CC)S(=O)(=O)c1nnc(NC(=O)COc2ccc(Cl)cc2)s1	-4%
CC1(C)Cc2cccc(C(=O)Nc3ccncc3)c2O1	-14%
CC(Oc1ccccc1)C(=O)Nc1ccc(S(=O)(=O)N2CCN(C)CC2)cc1 (centres undefined)	-25%
CC(OC(=O)c1ccccn1)C(=O)Nc1ccc2c(c1)OCCO2 (centres undefined)	-11%
CCSc1nc2ccccc2c(OCc2ccccc2Cl)c1C(=O)OC	6%
Cc1ccc(-n2cnc3c(sc4nccc(N(C)C)c43)c2=O)cc1	-1%
COc1ccc(CNC(=O)CNC(=O)c2cccs2)c(OC)c1	23%
CCOC(=O)c1c(C)[nH]c(C)c1C(=O)CSc1nncs1	9%

# Remaining list, next part
canonical_smiles	VDR inh
O=C(CN1c2ccc(Br)cc2-c2ccccc2S1(=O)=O)N1CCCCC1	14%
CCOC(=O)C1(C)NC(c2cccs2)C2C(=O)N(c3ccc(C)cc3)C(=O)C21 (centres undefined)	-1%
O=C(Nc1cccc(-c2nc3ccccc3c(=O)o2)c1)c1ccccc1	-2%
O=C(CCCN1C(=O)c2ccccc2C1=O)NC1=NCCS1	-15%
Cc1cccc(CSc2ncnc3ccccc23)c1	-1%
O=C(Nc1ccc(Cl)cc1)c1nc[nH]c1C(=O)NCc1ccccc1	-4%
O=C(COC(=O)CCS(=O)(=O)c1ccc(F)cc1)NC1CCCCC1	-3%
COCC(=O)OCC(=O)Nc1ccccc1-c1ccccc1	-5%
Cc1cc(Nc2cccc(Cl)c2)nc2ccc(NC(=O)c3cccc(N(C)C)c3)cc12	9%
Cc1ccc(OCCC(=O)NCCc2ccc(S(N)(=O)=O)cc2)cc1	-7%
CCN(CC)S(=O)(=O)c1cccc(-c2nnc(SCc3nnc(-c4cccs4)o3)n2N)c1	1%
CC1(c2ccc3ccccc3c2)NC(=O)N(CC(=O)Nc2cccc(S(=O)(=O)N3CCOCC3)c2)C1=O (centres undefined)	-14%
O=C(NCCOc1ccccc1)c1ccccc1[N+](=O)[O-]	-2%
CCOc1cc2sc(N3CCC(C(=O)Nc4ccccc4Cl)CC3)nc2cc1Br	-10%
Cc1cc(S(=O)(=O)N(Cc2ccccc2Cl)c2ccc3c(c2)CCC3)ccc1-n1cnnn1	-20%

# Other structures
canonical_smiles	VDR inh
Cn1c(SCC(=O)NCc2ccccc2)nnc1-c1ccc(NC(=O)CCc2ccccc2)cc1	6%
CC1CCCC(NC(=O)CCS(=O)(=O)c2cc3c(cc2Cl)NC(=O)CO3)C1C (centres undefined)	-13%
Fc1ccc(NC(=S)N/N=C/c2ccc(F)c(F)c2)c(F)c1	0%
C=CCn1c(O)c(N=NC(=O)OC(C)(C)C)c2ccccc21	10%
Cc1c(C(=O)Nc2nc(-c3ccc(F)cc3)ns2)oc2ccc(Cl)cc12	6%
COc1cc(C(O)CO)ccc1OS(=O)(=O)O (centres undefined)	2%&9%
Cc1cc(C)cc(Oc2coc3c(CN(C)C)c(O)ccc3c2=O)c1	5%
Cc1oc(C(=O)O)cc1COc1ccc2c(C)cc(=O)oc2c1	8%
O=C(O)CSCC(=O)Nc1cccc2ccccc12	-3%
O=S(=O)(c1ccccc1)N(C1=NCCS1)S(=O)(=O)c1ccccc1	3%
COc1ccccc1CNc1nc(SC)ncc1CO	-16%
O=C(CCCn1c(=O)[nH]c2cc(Cl)ccc2c1=O)NCCCN1CCCC1=O	9%
Cc1cc(C(F)(F)F)c2c(N)c(C(=O)Nc3cc(C)on3)sc2n1	13%
O=[N+]([O-])c1ccc(CSc2nnc3ccccn23)cc1	4%
CCOC(=O)c1nnn(CC(=O)N2N=C(c3cc(C)ccc3C)CC2c2ccc(OC)cc2)c1C(=O)OCC (centres undefined)	5%

# The closing two records of the part before are carried over, then new ones follow:
canonical_smiles	VDR inh
O=[N+]([O-])c1ccc(CSc2nnc3ccccn23)cc1	4%
CCOC(=O)c1nnn(CC(=O)N2N=C(c3cc(C)ccc3C)CC2c2ccc(OC)cc2)c1C(=O)OCC (centres undefined)	5%
O=C(COC(=O)[C@@H]1CC(O)CN1S(=O)(=O)c1ccc(Cl)c(Cl)c1)NC(=O)NCc1ccccc1 (some centres undefined)	4%
CC(C)(C)NC(=O)C(OC(=O)c1cccs1)c1ccc(F)cc1 (centres undefined)	4%
Nc1nnc(SCC(=O)Nc2ccc(Cl)cc2)s1	13%
CC(C)Cc1nnc(NC(=O)CS(=O)(=O)Cc2ccccc2)s1	-6%
COc1cccc2cc(C(C)N(CCCN3CCOCC3)C(=S)Nc3ccccc3C)oc12 (centres undefined)	-11%
